Screening data: PubChem BioAssay, National Center for Advancing Translational Sciences (NCATS)
Marburg entry inh = inhibitors of Marburg virus binding or cell entry | Marburg virus pseudotyped entry inhibition, cell reporter; control for the full effect not named in the record; about a third of the inactives were read at about 46 µM | Potency, µM (top dose mostly 37.8 µM), inactives show top-dose activity change, negative = inhibition, actives largely listed as inhibitors | hit rate 1.8% among 300,000 | AID 540276; active = well fitted inhibition curve with a large enough effect; inconclusive = small, poorly fitted or top-dose-only effect, or effect the other way; inactive = flat fitted curve, though single readings scatter; tested in HEK293 cells; about a fifth of its hits are not listed in these tables; further: on the % scale 0 is the no-effect control and ±100 the full control effect; luciferase read-out
Cruzain Triton = blocks cruzain activity in presence of Triton detergent; AID 1478; purified cruzain, Z-FR-AMC fluorescence, 0.01% Triton; Potency, µM, for inactives: max response, negative = inhibition, hits mostly inhibitors; hit rate 0.43% among 200,000; P25779; active means well fitted curve in the direction sought with a large enough effect; inconclusive means small, poorly fitted or top-dose-only effect, or another doubt; inactive means no such curve, though single readings can be large; an effect the other way counts as inactive or inconclusive;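 further: plate controls were neutral wells for no effect and buffer without enzyme for full effect; nearly all actives have a fitted effect of over 40% in size; top concentration of the series not given in the record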
Target sequence (P25779 123-467 limits assumed): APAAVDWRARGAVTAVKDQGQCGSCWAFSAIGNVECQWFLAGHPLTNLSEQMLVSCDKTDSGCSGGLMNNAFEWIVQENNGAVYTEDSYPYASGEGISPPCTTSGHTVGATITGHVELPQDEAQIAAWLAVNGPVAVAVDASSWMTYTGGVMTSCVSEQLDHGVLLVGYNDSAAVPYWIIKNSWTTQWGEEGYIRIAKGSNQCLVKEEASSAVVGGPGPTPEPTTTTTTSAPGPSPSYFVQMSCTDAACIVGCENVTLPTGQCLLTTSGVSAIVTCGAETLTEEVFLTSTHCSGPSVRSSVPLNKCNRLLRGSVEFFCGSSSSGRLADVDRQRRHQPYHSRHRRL
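Sodium acetate buffer (100 mM, pH 5.5) containing 5 mM DTT and 0.01% Triton X-100 hosted 1.5 nM cruzain and test compound for 15 min at room temperature. Cleavage of 2 uM Z-FR-AMC was then tracked by fluorescence.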
NS1 function inh = blocks influenza NS1 protein function | hit rate 0.4% among 270,000 | S. cerevisiae slowed by influenza A NS1, growth recovery by OD600 | Potency, µM (doses to about 46.1 µM), for the others: top-dose activity, positive = more growth; further: actives are rising curves; nearly all actives have a fitted effect of over 50% in size
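Growth recovery, yeast-based: influenza A NS1 expressed in S. cerevisiae causes slow growth, and suppressors are detected by OD600. The parent strain without NS1 is used as positive control.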
SARS PLpro yeast = inhibitors of SARS-CoV papain-like protease in yeast. S. cerevisiae expressing SARS-CoV PLpro, growth rescue; control for the full effect not named in the record. Potency, µM (top dose mostly 32.9 µM), for the others: top-dose activity, positive = growth rescue. hit rate 0.19% among 330,000; further: 0% is about no effect; nearly all actives have a fitted effect of over 55% in size; growth read by luminescence after 48 h
LASV entry inh = Lassa virus entry inhibition; Lassa virus pseudotype entry inhibition, cell reporter; control for the full effect not named in the record; Potency, µM (highest dose often 37.9 µM), for the others: at the highest dose activity change, negative = inhibition, usual class: inhibitors; hit rate 1.2% among 300,000; AID 540256; active means well fitted inhibition curve with a large enough effect; inconclusive means small, poorly fitted or top-dose-only effect, or effect the other way; inactive means flat fitted curve, though single readings scatter; tested in HEK293 cells; further: on the % scale 0 is the no-effect control and ±100 the full control effect; nearly all actives have a fitted effect of over 50% in size; luciferase read-out
Cruzain inh noDet = blocks cruzain activity in detergent-free assay; Potency, µM, for inactives: max response, negative = inhibition, actives largely listed as inhibitors; purified cruzain, Z-FR-AMC fluorescence, no detergent; AID 1476; hit rate 2.3% among 200,000; active means well fitted curve in the direction sought with a large enough effect; inconclusive means small, poorly fitted or top-dose-only effect, or another doubt; inactive means no such curve, though single readings can be large; an effect the other way counts as inactive or inconclusive;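 further: plate controls were enzyme without inhibitor for no effect and buffer without enzyme for full effect; nearly all actives have a fitted effect of over 40% in size; top concentration of the series not given in the record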
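Purified cruzain at 1.5 nM, pre-incubated 15 min with compound at room temperature in 100 mM sodium acetate pH 5.5, 5 mM DTT, 0.00005% Triton X-100. Reaction started with 2 uM Z-FR-AMC; AMC fluorescence increase over 60 s gives rate.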
RE007 growth inh = less growth of the S. pombe RE007 Vpr strain | Potency, µM (series often up to 92.2 µM), without a hit: at the highest dose activity change, negative = less growth | hit rate 0.21% among 360,000 | S. pombe RE007 Vpr strain, BacTiter-Glo ATP luminescence, 24 h; control for the full effect not named in the record; active = well fitted falling curve with a large enough effect; inconclusive = small, poorly fitted or top-dose-only effect; inactive = no such curve, though single readings can be large or run the other way;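 further: on the % scale 0 is the no-effect control and ±100 the full control effect; nearly all actives have a fitted effect of over 50% in size; the assay follows cell death caused by Vpr and the record does not say whether a fall means rescue or toxicity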
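Fission yeast RE007 carrying one integrated HIV-1 vpr copy, seeded at OD 0.01 in PMG+AL medium with 23 nL pinned compound. Grown 24 h at 30 degrees; viability read by BacTiter-Glo luminescence after 5 min.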
2A StopGo = FMDV 2A StopGo reporter, luciferase signal; human cells with a luciferase reporter of 2A StopGo recoding; control for the full effect not named in the record; hit rate 1.2% among 410,000; Potency, µM (highest dose often 57.9 µM), without a hit: at the highest dose signal change, negative = less light; active = well fitted falling curve with a large enough effect; inconclusive = small, poorly fitted or top-dose-only effect; inactive = no such curve, though single readings can be large or run the other way; tested in HEK293T cells; further: on the % scale 0 is the no-effect control and ±100 the full control effect; nearly all actives have a fitted effect of over 45% in size; luciferase light after 4 h
Starred values were filed as active, the others as inactive; ? = inconclusive; / = no result given; & = joins results of further samples; [ ] = dose if it differs, or a comment. Unless noted, the call rests on the fitted dose curve; in most records, active means well fitted rising curve with a large enough effect; inconclusive means small, poorly fitted or top-dose-only effect; inactive means no such curve, though single readings can be large or run the other way. Potency means the concentration at half of the fitted maximal effect.

SMILES	Marburg entry inh	Cruzain Triton	NS1 function inh	SARS PLpro yeast	LASV entry inh	Cruzain inh noDet	RE007 growth inh	2A StopGo
COc1ccc(F)cc1S(=O)(=O)NCc1cc(=O)n(C)c(=O)n1C	/	/	-16%	-1%	/	/	-3%	29%
Cc1cccc(/C=C2\CCC(=C3SCCCS3)C2=O)c1	?	-7.8%	-12%	0%	?	-1%	12%	-27%
CCCCn1c(N)c(N(CCC(C)C)C(=O)c2cccc(S(=O)(=O)N3CCN(C)CC3)c2)c(=O)[nH]c1=O	?	/	/	-1%	8%	/	-7%	0%
CC(C)[C@H](NC(=O)c1ccc(Cl)cc1Cl)C(=O)NNC(=O)c1ccco1	2%[46.1 µM]	/	/	0%	-1%[46.1 µM]	/	11%	13%
CC(=O)OCC1(C)CN(c2ccccc2)N(C(=O)c2ccc(C(C)(C)C)cc2)C1=O (stereo not given)	/	/	-3%	-3%	/	/	12%	-6%
COc1ccc(N(CC(=O)Nc2ccc(OC)cc2OC)S(=O)(=O)c2ccccc2)cc1	?	/	4%	-1%	?	/	2%	-3%
O=C(Nc1ccc(-c2cn3c(n2)SCC3)cc1)c1ccc2ccccc2n1	?	/	/	-3%	?	/	-24%	25µM*
CCc1ccc(NS(=O)(=O)c2ccc(NC(=O)N3CCCC3)cc2)cc1	/	-1.3%	/	/	-9%[46.1 µM]	-6%	/	-7%
COc1ccc(-n2c(-c3ccccc3)nc3ccccc3c2=O)cc1	-20%[46.1 µM]	/	2%	-1%	9%	/	2%	-12%
Cc1ccc(C(=O)NNC(=O)CSc2nnc(-c3ccncc3)n2C)cc1	9%	8.6%	-3%	4%	18%	-1%	2%	20%
CC(=O)NC(C)c1nc2ccccc2n1Cc1ccccc1Cl (stereo not given)	-2%[46.1 µM]	-1.3%	/	/	-1%[46.1 µM]	2%	/	-11%
CCN(c1ccccc1)S(=O)(=O)c1c(C)nc2scc(C)n2c1=O	7%[46.1 µM]	-3.3%	/	/	-2%[46.1 µM]	-10%	/	7%
CC(C)C12NC(=O)NC(=O)N1CCS2 (stereo not given)	21%	/	/	/	13%	/	0%	4%
CC(C)CNC(=S)NC1CCCC1	11%	4.9%	-2%	25%	-26%	5%	16%	0%
CCOC(=O)c1c(NC(=O)C2C3C=CC(CC3)C2C(=O)O)sc(C)c1C (stereo not given)	-7%	-5.6%	-1%	-1%	-4%	-5%	-4%	?
CC(C)C[C@H](NC(=O)C1(c2ccccc2)CCN(C(=O)OC(C)(C)C)CC1)C(=O)N1CCC[C@H]1C(=O)O	/	/	8%	1%	/	/	2%	-4%
Cc1ccc(S(=O)(=O)CCC(=O)c2ccc(F)cc2)cc1	?	/	5%	-2%	16%[46.1 µM]	/	-26%	?
Cn1c(CC(=O)Nc2ccccc2)c(Sc2ccccc2)c2ccccc21	-18%	-5.5%	2%	7%	1%	?	-8%	-12%
O=C(CSc1nc(-c2ccccc2)c(-c2ccccc2)[nH]1)Nc1nccs1	?	-3.7%	13%	2%	-17%	-3%	1%	?
CCOc1ccc(C(=O)C2CCN(CC(=O)Nc3nccs3)CC2)cc1	?	/	-8%	4%	?	/	3%	?
Cc1cc(N2CCN(C(=O)OC(C)(C)C)CC2)n2ncnc2n1	2%[46.1 µM]	2.5%	-4%	0%	-16%	-14%	-16%	-18%
CC1CCN(S(=O)(=O)c2ccc3c(c2)N(CC(=O)NCCCN2CCCCC2)C(=O)CS3)CC1	/	-0.1%	-3%	-1%	10%[46.1 µM]	7%	1%	-5%&-11%
O=S(O)OC1CS(=O)(=O)CC1c1ccccc1 (stereo not given)	/	/	4%	2%	/	/	7%	-21%
CC(NC(=O)NC1CCCCC1)c1ccc2c(c1)OCO2 (stereo not given)	/	/	1%	0%	/	/	14%	13%
COc1ccc(CNC(=O)c2cncc(Br)c2)cc1	?	/	-3%	-5%	22%[46.1 µM]	/	2%	3%
Cc1ccc(S(=O)(=O)NC(=O)Nc2ccc(F)c(F)c2)cc1	0%[46.1 µM]	/	6%	3%	-4%	/	-1%	-6%
CC(=O)N1CN(CCCn2ccnc2)Cc2c1sc1c2CCCC1	4%&4%	3.2%	0%	2%	-7%	-6%	-4%	-15%
CCOC(=O)CC1NC(=O)c2ccccc21 (stereo not given)	-21%[46.1 µM]	0.9%	-8%	0%	2%	4%	16%	11%
O=C(NCc1cccs1)c1cc(C2CC2)on1	/	4.0%	10%	-2%	/	4%	-11%	31%[activator]
COc1ccccc1OCC(=O)Nc1ccccn1	-11%	0.4%	-17%	-10%	?	-4%	?	-17%
Cc1ccc(OCC(O)CNCc2ccccc2)cc1C (stereo not given)	?	/	7%	1%	?	/	-9%	-22%
CN(C)c1nc(NCc2ccccc2)nc(SCC(=O)Nc2ccccc2)n1	?	-0.8%	10%	6%	-23%	-5%	6%	/
Cn1nnnc1SCCNCc1ccc(OCc2ccccc2Cl)cc1	?	1.8%	/	/	-3%[46.1 µM]	4%	/	0%
CCN(CC)S(=O)(=O)c1ccc(O)c(NC(=O)c2ccc(N3CCOCC3)c([N+](=O)[O-])c2)c1	-8%	-2.5%	25%	3%	-30%	?	14%	0%
N/C(=N\OC(=O)Cc1ccccc1[N+](=O)[O-])c1ccccn1	?	/	-1%	0%	-30%	/	1%	39%[activator]
CCOC(=O)/C(C#N)=C/c1cc2cc(C)c(C)cc2nc1Cl	-4%[46.1 µM]	/	-37%	-2%	-3%	/	-4%	31%[activator]
CCc1ccc(C(C)NC(=O)c2ccc3c(c2)OCO3)cc1 (stereo not given)	/	/	-1%	2%	/	/	1%	-3%
COc1ccc2nc(N/C(N)=N/C(=S)Nc3ccccc3)nc(C)c2c1	?	/	/	17%	-2%	/	3%	-20%
CCCCn1c(SCc2ccccc2C#N)nc2c(sc3ccccc32)c1=O	/	1.6%	/	/	-6%[46.1 µM]	-6%	/	13%
O=C(Nn1c(C2CCCCC2)nc2ccccc2c1=O)c1ccc(Cl)c([N+](=O)[O-])c1	?	-11%	4%	-26%	-11%	-8%	-6%	?

Laid out differently: entries from further up.
structure,Marburg entry inh,Cruzain Triton,NS1 function inh,SARS PLpro yeast,LASV entry inh,Cruzain inh noDet,RE007 growth inh,2A StopGo
COc1ccccc1OCC(=O)Nc1ccccn1,-11%,0.4%,-17%,-10%,?,-4%,?,-17%
Cc1ccc(OCC(O)CNCc2ccccc2)cc1C (stereo not given),?,/,7%,1%,?,/,-9%,-22%
CN(C)c1nc(NCc2ccccc2)nc(SCC(=O)Nc2ccccc2)n1,?,-0.8%,10%,6%,-23%,-5%,6%,/
Cn1nnnc1SCCNCc1ccc(OCc2ccccc2Cl)cc1,?,1.8%,/,/,-3%[46.1 µM],4%,/,0%
CCN(CC)S(=O)(=O)c1ccc(O)c(NC(=O)c2ccc(N3CCOCC3)c([N+](=O)[O-])c2)c1,-8%,-2.5%,25%,3%,-30%,?,14%,0%
N/C(=N\OC(=O)Cc1ccccc1[N+](=O)[O-])c1ccccn1,?,/,-1%,0%,-30%,/,1%,39%[activator]

Next part.
SMILES	Marburg entry inh	Cruzain Triton	NS1 function inh	SARS PLpro yeast	LASV entry inh	Cruzain inh noDet	RE007 growth inh	2A StopGo
Cc1ccc(CNC2=NCCS2)cc1	?	/	2%	2%	18%[46.1 µM]	/	-16%	45%[activator]
CC[C@@H](C)[C@H](NC(=O)Cc1c(C)c2cc3c(C)coc3c(C)c2oc1=O)C(=O)O	/	/	14%	1%	/	/	-7%	8%
CC(CNC(=O)CCc1cn(Cc2ccccc2Cl)c2ccccc12)c1ccccc1 (stereo not given)	/	-2.9%	/	/	-28%[46.1 µM]	-7%	/	-7%
C=CCNC(=O)NS(=O)(=O)c1ccc(C)cc1	28%	1.1%	-10%	-1%	24%	15%	23%	-4%
O=c1c2ccccc2nc2n1CC/C2=C/N1CCN(c2cccc(C(F)(F)F)c2)CC1	?	-1.7%	?	1%	-4%	-17%	-5%	/
Cc1cc2oc(=O)cc(Cn3ncc(Cl)c(Cl)c3=O)c2cc1Cl	?	/	-2%	2%	?	/	?	?
Cc1oc(-c2ccc(Cl)cc2)nc1Cn1c(=O)cc(C)c2c(C)nn(-c3cccc(F)c3)c21	/	0.1%	/	/	13%[46.1 µM]	-13%	/	-12%
Cc1cc(C)n(C(=O)c2ccc(C)c(S(=O)(=O)N3CCCCC3)c2)n1	-13%	-1.7%	-3%	-5%	-6%	7%	6%	13%
CCc1ccccc1NC(=O)COc1ccc2c(c1)OCO2	2%[14.2 µM]	/	/	-1%	-1%	/	-12%	0%
Cc1ccc(CNC(=O)CS(=O)(=O)Cc2nc(-c3ccccc3F)oc2C)cc1	/	/	-7%	6%	/	/	15%	-16%
O=C(NNC(=O)c1ccc([N+](=O)[O-])cc1)c1ccc(Br)cc1	20%	/	4%	2%	9%	/	2%	-10%
O=C(Nc1ccc(F)cc1)C1C2CCC3C(CCC21)C3(Cl)Cl (stereo not given)	-10%[46.1 µM]	/	-11%	-9%	?	/	-8%	-22%
CCc1nnc(NC(=O)COc2ccc3c(c2)OCO3)s1	11%[46.1 µM]	/	-7%	2%	-9%[46.1 µM]	/	4%	19%
CC(=O)N1N=C(c2ccc(Cl)cc2)CC1c1ccco1 (stereo not given)	?	/	-2%	-1%	-3%[46.1 µM]	/	-12%	23%
Cc1ccc(-c2nc3cnccn3c2Nc2ccc3c(c2)OCO3)o1	/	-2.4%	-38%	-2%	/	1%	2%	-28%
Cc1ccc(S(=O)(=O)Oc2ccc(/C=C3/N=C(c4ccccc4)OC3=O)cc2)cc1	-19%	-10%	21%	10%	-2%	?	7%	-16%
COc1ccccc1-n1nnnc1SCC(=O)Nc1ccc(C)c(N)c1	2%[46.1 µM]	/	8%	1%	-1%[46.1 µM]	/	-10%	?
Cc1ccc(C(C)C)c(OCC(O)CN2CCOCC2)c1 (stereo not given)	-8%	-0.4%	-10%	-2%	-5%	-2%	-5%	/
